GIV Gai3 FP: GIV-Galpha-i interaction inhibition; P08753; Galpha-i3/FITC-GIV peptide fluorescence polarization, 90 min; hits give low values; scaled: aluminum fluoride 0%, vehicle 100%; percent of control (FP), % (test concentration not listed); hit rate 0.42% among 210,000; AID 1224905;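 active means replicate mean at 85% of control or lower, very high polarization wells dropped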;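 further: wells of about 15 µL received 100 nL stock; the first replicate is given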
Target sequence (P08753 whole entry, looked up): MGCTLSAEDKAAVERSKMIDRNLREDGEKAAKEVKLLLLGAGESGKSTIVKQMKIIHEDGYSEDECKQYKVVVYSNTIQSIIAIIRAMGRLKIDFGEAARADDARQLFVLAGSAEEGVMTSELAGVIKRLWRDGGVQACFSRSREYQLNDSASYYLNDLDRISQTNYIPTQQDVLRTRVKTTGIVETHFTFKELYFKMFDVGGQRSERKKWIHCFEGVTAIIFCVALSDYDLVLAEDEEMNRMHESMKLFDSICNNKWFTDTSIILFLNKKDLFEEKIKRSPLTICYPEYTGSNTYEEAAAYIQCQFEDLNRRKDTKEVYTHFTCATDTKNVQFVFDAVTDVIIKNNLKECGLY
* = called active by the depositor. An excerpt. The share of hits here may be higher or lower than overall.

GIV Gai3 FP | Structure
77* | Cc1[nH]n(-c2ccccc2)c(=O)c1C(c1ccccc1)c1c(C)[nH]n(-c2ccccc2)c1=O
107 | COc1c(Cl)cc(Cl)cc1-c1nnc2ccc3ccccc3n12
107 | Cc1nn(-c2ccc(F)cc2)c2sc(C(=O)Nc3ccc(F)c(Cl)c3)cc12
104 | O=C(C1CCCN(S(=O)(=O)c2cc(-c3noc(C4CCCC4)n3)cs2)C1)N1CCOCC1 (stereo not given)
102 | COc1ccc(-c2noc3ncnc(N4CCC(C(=O)N5CCCCC5)CC4)c23)cc1
105 | CC1(O)N(CCCC(=O)O)C(=O)OC12CCCCC2 (stereo not given)
102 | O=C(Cn1c(=O)ccc2cc(S(=O)(=O)N3CCCC3)ccc21)N1CCN(c2ccccn2)CC1
120 | CCOc1cccc2c1OC1(CCC(C)CC1)N1N=C(c3ccco3)CC21 (stereo not given)
105 | Cc1cc2c(cc1C(=O)Nc1ccc(N3CCCC3)c(C(N)=O)c1)OCCCO2
105 | Cc1ccc(NC2=NC(=S)N(c3ccccc3Cl)C23CCC(C(C)(C)C)CC3)cc1 (stereo not given)
103 | CCOc1ccc(-n2c(=S)sc3c2nc(SC)n2c4ccccc4nc32)cc1
111 | COCc1cc(C)nc(SCC(=O)c2ccc(Cl)cc2Cl)c1C#N
98 | Cc1ccc(-c2noc(C3CCCN3C(=O)CNS(=O)(=O)c3ccc(Cl)cc3)n2)cc1 (stereo not given)
133 | O=C(O)COc1ccc(/C=C2/C(=O)NC(=O)N(c3ccc4c(c3)OCO4)C2=O)cc1
104 | CC(C)NC(=O)N(C)Cc1ccoc1
106 | O=C(CN1CCOCC1)Nc1nnc(SCC(=O)N(c2ccccc2)c2ccccc2)s1
103 | O=c1ccc2cc(S(=O)(=O)N3CCC(N4CCCCC4)CC3)ccc2[nH]1
107 | COc1ccc(C)cc1NC(=O)NCc1nnc(C(=O)Nc2ccccc2)s1
109 | COc1ccc(/C(O)=C2\C(=N)N(c3cc(OC)ccc3OC)C3=C(C(=O)CC(C)(C)C3)C2c2ccc3c(c2)OCO3)cc1 (stereo not given)
103 | O=c1ccn(-c2ccc(Cl)cc2)nc1-c1nc(-c2ccccc2Cl)no1
103 | CS(=O)(=O)NCCOc1ccc(-c2ccccc2)nn1
110 | COCCCNC1=NCCNC12CCN(S(=O)(=O)c1ccccc1C)CC2
117 | CC1(C)CC(=O)C2=C(C1)N(c1ccc([N+](=O)[O-])cc1)C(N)=C(C#N)C2c1cccc([N+](=O)[O-])c1 (stereo not given)
120 | CCOc1ccccc1-c1noc(Cn2cnc3c(cnn3-c3ccccc3)c2=O)n1
108 | COc1ccc(N=C2SC(C(=O)Nc3ccc(OC)cc3)CC(=O)N2CCN2CCOCC2)cc1 (stereo not given)
98 | CCN(CC)C(=O)CSc1nnc2c3ccccc3nc(-c3ccccc3)n12
100 | CCOC(=O)c1sc(=S)n(-c2cccc(C(F)(F)F)c2)c1N
106 | CCOC(=O)C1=CC2(SC=C(C(=O)OCC)S2)C2=C(S1)C(C)(C)Nc1c(OCC)cccc12 (stereo not given)
105 | CCc1nnc(-c2ccc(S(=O)(=O)N3CCCC3)o2)o1
97 | O=C(NC1CCCCC1)c1ccc2nc3ccc(Cl)cc3c(=O)n2c1

Entries above with four or more nitrogen atoms (14):
GIV Gai3 FP | Structure
77* | Cc1[nH]n(-c2ccccc2)c(=O)c1C(c1ccccc1)c1c(C)[nH]n(-c2ccccc2)c1=O
104 | O=C(C1CCCN(S(=O)(=O)c2cc(-c3noc(C4CCCC4)n3)cs2)C1)N1CCOCC1 (stereo not given)
102 | COc1ccc(-c2noc3ncnc(N4CCC(C(=O)N5CCCCC5)CC4)c23)cc1
102 | O=C(Cn1c(=O)ccc2cc(S(=O)(=O)N3CCCC3)ccc21)N1CCN(c2ccccn2)CC1
103 | CCOc1ccc(-n2c(=S)sc3c2nc(SC)n2c4ccccc4nc32)cc1
98 | Cc1ccc(-c2noc(C3CCCN3C(=O)CNS(=O)(=O)c3ccc(Cl)cc3)n2)cc1 (stereo not given)
106 | O=C(CN1CCOCC1)Nc1nnc(SCC(=O)N(c2ccccc2)c2ccccc2)s1
107 | COc1ccc(C)cc1NC(=O)NCc1nnc(C(=O)Nc2ccccc2)s1
103 | O=c1ccn(-c2ccc(Cl)cc2)nc1-c1nc(-c2ccccc2Cl)no1
110 | COCCCNC1=NCCNC12CCN(S(=O)(=O)c1ccccc1C)CC2
117 | CC1(C)CC(=O)C2=C(C1)N(c1ccc([N+](=O)[O-])cc1)C(N)=C(C#N)C2c1cccc([N+](=O)[O-])c1 (stereo not given)
120 | CCOc1ccccc1-c1noc(Cn2cnc3c(cnn3-c3ccccc3)c2=O)n1
108 | COc1ccc(N=C2SC(C(=O)Nc3ccc(OC)cc3)CC(=O)N2CCN2CCOCC2)cc1 (stereo not given)
98 | CCN(CC)C(=O)CSc1nnc2c3ccccc3nc(-c3ccccc3)n12

Following part.
GIV Gai3 FP | Structure
107 | O=C(Cn1cnc2ccccc2c1=O)Oc1cccc(NC2=NS(=O)(=O)c3ccccc32)c1
118 | S=c1sc2c(N3CCCCCC3)ncnc2n1-c1ccccc1
101 | CCc1nc(CN2C(=O)COc3cc(S(=O)(=O)NCC4CCCO4)c(C)cc32)no1 (stereo not given)
108 | Cc1cccc(NC(=O)C2CC2c2ccccc2)c1 (stereo not given)
107 | COCCn1cc(CCNC(=O)Nc2cc(F)ccc2F)c2cccnc21
113 | COCCCNC1=NCCNC12CCN(S(=O)(=O)c1cc(C)cc(C)c1)CC2
133 | CCOc1cc(CN2CCCC2c2cc(C)on2)ccc1O (stereo not given)
102 | CCC(C)NC(=O)c1sc2ncnc(N3CCN(c4ccccn4)CC3)c2c1C (stereo not given)
105 | c1cc(-c2noc(-c3ccc4c(c3)OCO4)n2)ccc1-c1csc(C2CC2)n1
103 | O=C(c1cc(NS(=O)(=O)c2ccccc2)ccc1N1CCNCC1)N1CCOCC1
110 | O=C(Nc1sc2c(c1C(=O)Nc1ccccc1)CCCCC2)c1cccnc1
125 | COc1cc(OC)c(OC)cc1/C=C1\N=C(c2ccc(-c3ccccc3)cc2)OC1=O
101 | Cc1ccccc1CNC(=O)C1(C)CCCN(C(=O)NCC(C)C)C1 (stereo not given)
108 | O=C(NC1CCCC1)N1CCN(Cc2nc3cccnc3n2-c2ccccc2)CC1
122 | COC(=O)C1=C(C)OC(N)=C(C#N)C1c1cc([N+](=O)[O-])cs1 (stereo not given)
101 | CN(C)c1nc2ncn3c(=O)n(CC(=O)N4CCc5ccccc5C4)nc3c2s1
104 | Oc1ccc(-c2nc3c4ccccc4c4ccccc4c3[nH]2)cc1
99 | Cc1nc(-c2ccc(C)c(S(=O)(=O)N3CCOCC3)c2)no1
104 | CCNc1nc(NCC)nc(Nn2c(=S)[nH]c3sc4c(c3c2=O)CCCC4)n1
101 | Cc1nc(CCNC(=O)[C@H]2CSCN2S(=O)(=O)c2ccccc2C)cs1
94 | CN(C)c1ncnc2c1cnn2-c1ccccc1
105 | CCOc1ccc(C2C(N3C(=O)c4c(Cl)c(Cl)c(Cl)c(Cl)c4C3=O)C(=O)N2c2ccc(C)cc2)cc1 (stereo not given)
96 | CN1c2ccccc2C(=O)NC12CCN(C(=O)Nc1ccc3c(c1)OCCO3)CC2
100 | CCOc1ccc(S(=O)(=O)N2CSC[C@@H]2C(=O)NCc2csc(C)n2)cc1
114 | CCOC(=O)c1ccc(Cn2c3ccc([N+](=O)[O-])cc3c3nn4cc(-c5ccc(F)cc5)nc4nc32)o1
103 | Cc1cc2c(cc1S(=O)(=O)N(C)CC(=O)NC1CCCCC1)OCC(=O)N2
100 | O=C(Nc1ccc2c(c1)OCCO2)N1CCN(c2nc3ccccc3n3cccc23)CC1
107 | O=C(NCc1ccco1)/C(=C/c1ccc([N+](=O)[O-])cc1)NC(=O)c1ccccc1
116 | COc1ccc(NCN2C(=O)C3C4c5ccccc5C(c5ccccc54)C3C2=O)cc1 (stereo not given)
105 | CCOP(=O)(OCC)c1nc(-c2ccc(C)cc2)oc1NCc1ccco1
93 | O=C(Nc1ccc(Cl)cc1)N1CCCN(c2nc3cc(F)ccc3n3cccc23)CC1
103 | O=S(=O)(c1cccs1)N1CCC2(CC1)NCCN=C2NCc1ccccc1Cl
104 | CCOC(=O)C1=c2s/c(=C\c3ccccc3F)c(=O)n2C(N)=C(C(=O)OC)C1c1ccccc1F (stereo not given)
101 | O=C(NCc1ccccn1)c1nc(N2CCCCC2)c2oc3ccccc3c2n1
102 | O=C(NCc1ccc2c(c1)OCCCO2)c1ccc2c(c1)OCCO2
103 | COc1ccccc1NC(=O)Cn1cnc2sc(C(=O)Nc3nnc(C)s3)c(C)c2c1=O
108 | CCCS(=O)(=O)c1c(S(=O)(=O)CCC)c2c3ccccc3ccn2c1C(=O)N/N=C/c1ccncc1
105 | CCC(C)(C)NS(=O)(=O)c1c(C)sc(C)c1-c1cc(C(F)(F)F)on1
112 | CCOc1ccc(C2C(C(=O)OCCSCC)=C(C)NC3=C2C(=O)CC(c2cccs2)C3)cc1 (stereo not given)
99 | CCOc1ccc(NS(=O)(=O)c2cc(-c3nc(C(C)(C)C)cs3)cs2)cc1
99 | O=C(NCC1COCCO1)c1ccccc1NC(=O)c1nsc2ccccc12 (stereo not given)
105 | C=CCOc1ccc(C2CC(=O)Nc3c2cnn3-c2nc3ccccc3s2)cc1 (stereo not given)
105 | CC(=O)Nc1ccc(S(=O)(=O)Nc2cc(C(=O)N3CCC(C)CC3)ccc2N2CC3CC(C2)c2cccc(=O)n2C3)cc1 (stereo not given)
109 | CC(=O)Nc1ccc(/C=c2\sc3nc4cc(Br)cnc4n3c2=O)cc1
106 | COc1ccc(C(N)=O)cc1NC(=O)c1ccc2c(=O)n(Cc3cccc(Br)c3)c(=S)[nH]c2c1
124 | Cc1nc2c(oc3nc(-c4ccco4)c4c(c32)CC(C)(C)OC4)c(-c2ccc(Br)cc2)c1C(=O)O
106 | CN(c1ccc(Cl)cc1)S(=O)(=O)c1ccc2[nH]cc(C(=O)NCCCN3CCOCC3)c(=O)c2c1
112 | Cc1ccccc1-c1noc(CCn2nc(-c3ccccc3)ccc2=O)n1
108 | Cc1cccc(NC2=NC(=S)N(CC#N)C23CCCC3)c1
105 | Cc1ccc(C)c(N2C(=O)C3C4c5ccccc5C(CO)(c5ccccc54)C3C2=O)c1 (stereo not given)
99 | O=C(CN1C(=O)CCCc2cc(S(=O)(=O)N3CCCC3)ccc21)NCc1ccc(Cl)cc1
132 | COC(=O)c1cc(C(=O)OC)cc(N2C(=O)CSC2c2ccccc2C(F)(F)F)c1 (stereo not given)
106 | COc1ccc(N(C(=O)c2ccccc2)C2=CC3CCC(C2)N3C)cc1 (stereo not given)
104 | CCOc1ccc(C2C(C#N)=C(N)Oc3n[nH]c(-c4ccc(F)cc4)c32)cc1OCC (stereo not given)
105 | N#Cc1c(NC(=O)CSc2nc3ccccc3o2)sc2c1CCC2
111 | COc1ccc(CNC(=O)C2CCN(C(=O)c3cccnc3-c3ccccc3C)CC2)cc1
112 | Cc1cc(C)nc(NS(=O)(=O)c2ccc(NC(=O)c3sc4nc5c(cc4c3N)CCCC5)cc2)n1
108 | CN1CCN(C(=O)c2ccc(-c3cccc(F)c3)nc2)C(c2ccccc2)C1 (stereo not given)
102 | CCOC(=O)CSc1nnc2c(n1)[nH]c1ccccc12
112 | COc1ccc(CSc2nccc3c2ccn3CC(=O)Nc2ccc3c(c2)OCCO3)cc1

A second format for some results above:
> CN(c1ccc(Cl)cc1)S(=O)(=O)c1ccc2[nH]cc(C(=O)NCCCN3CCOCC3)c(=O)c2c1
  GIV Gai3 FP = 106
> Cc1ccc(C)c(N2C(=O)C3C4c5ccccc5C(CO)(c5ccccc54)C3C2=O)c1 (stereo not given)
  GIV Gai3 FP = 105

The listing continues:
GIV Gai3 FP | Structure
115 | CN1CCc2nc(SCc3ccc(F)cc3)c(C#N)c(-c3cccs3)c2C1
107 | CCSc1nc2ccccc2n1Cc1ccc(OC)c([N+](=O)[O-])c1
103 | CCCc1cc(C2CCCN2Cc2ccc(F)cc2)no1 (stereo not given)
108 | Cc1ccc(S(=O)(=O)Nc2ccc3oc4c(c3c2)CC(C(C)(C)C)CC4)cc1 (stereo not given)
105 | Cc1ccc(-c2cc(N3CCN(C(=O)c4ccc(F)cc4Cl)CC3)ncn2)cc1
106 | COc1cccc(C2NC(=S)NC(C)=C2C(=O)Nc2ccc(Cl)cc2)c1OC (stereo not given)
110 | COc1ccc(NC(=O)NCCc2n[nH]c(Cc3ccc(F)cc3)n2)c(OC)c1
101 | COc1ccccc1CNC(=O)c1ccc(-c2noc(C3CCCN(C(=O)c4ccccc4)C3)n2)cc1 (stereo not given)
110 | CNCCC(=O)N1c2ccccc2CCc2ccc(NC(=O)OC)cc21
114 | COc1ccc(CNc2ccc(C(=O)N3CCN(C)CC3)cc2S(=O)(=O)Nc2cccc(OC)c2)cc1
108 | Cc1nn(-c2ccc(F)cc2)c2c1c(=O)c(C(=O)NCCCOC(C)C)cn2C
102 | COc1cccc(NC(=O)CSC2=C(C#N)C(c3cccs3)C3=C(CCCC3=O)N2)c1 (stereo not given)
103 | Cc1ccccc1CN1C(=O)C(O)(C(C)C(=O)c2ccccc2)c2ccccc21 (stereo not given)
110 | Cc1nc(N2CCC(C)CC2)c2c(C)c(C(=O)NC3CCCCC3)sc2n1
106 | CN1CCN(C(=O)C2CCN(S(=O)(=O)c3cc(-c4noc(C5CCC5)n4)cs3)CC2)CC1
103 | CCN(CC)CCNC(=O)C(C)C1CCN(S(=O)(=O)c2c(C)noc2C)CC1 (stereo not given)
105 | O=C(Cn1c2ccccc2c2ncn(Cc3nc(C4CC4)no3)c(=O)c21)Nc1ccc2c(c1)OCO2
116 | N#Cc1c(NC(=O)COc2ccc(Cl)cc2Cl)sc2c1CCCCC2
100 | Cc1cccc(OCC(=O)N2CSC[C@@H]2C(=O)NCCc2cscn2)c1
105 | COc1cc2c(cc1OC)C(Nc1ccc(Cl)cc1Cl)=NC(C)(C)C2
111 | CC(C)CCCC(C)C1CCC2C3CC=C4CC(OC(=O)C(Cl)C(C)C)CCC4(C)C3CCC12C (stereo not given)
107 | CC1CCN(c2cncnc2-n2cc(NC(=O)NC(C)(C)C)cn2)CC1
102 | CCN1C(=O)C2(OCCO2)c2ccccc21
101 | O=C(CSc1n[nH]c(-c2ccco2)n1)c1ccc(O)cc1O
98 | O=C(NCc1ccccc1Cl)c1ccc2c(c1)[nH]c(=S)n1c3ccccc3nc21

High-throughput results: PubChem BioAssay, ICCB-Longwood Screening Facility, Harvard Medical School
